D2 ag: human D2 receptor agonism in beta-arrestin assay | P14416 | DiscoveRx PathHunter D2 beta-arrestin, luminescence, 90 min; 100% = 57 uM dopamine signal | activation, % (no concentration beside the values) | 0.084% of 360,000 active; in the data active = activation above about 40%; inconclusive = about 15% to 40%; inactive = below about 15%; further: compound concentration not given in the record; the text of the record calls up to 30% inactive
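DiscoveRx PathHunter D2 beta-arrestin cells (2,100/well) attached overnight, then compound-stimulated 90 min at 37 C in HBSS/10 mM HEPES/0.1% Tween-20 buffer; beta-galactosidase complementation read by luminescence after 1 h at ambient temperature. Dopamine 57 uM final (EC100) as control.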
TRPML1 agonist: activates the human TRPML1 channel; TRPML1-expressing cells, Ca2+ dye fluorescence, FDSS; host cell line not named in the record; reference of the full effect not given here; activation, % (test concentration not listed); 0.12% of 410,000 active; AID 624414; in the data active = activation above about 50%; inconclusive = about 30% to 50%; inactive = below about 30%; further: 0% is about no effect; the text of the record puts the active cut at 80%
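Tetracycline-induced TRPML1-DL cells are seeded and incubated overnight before loading with a no-wash Ca2+ dye and quencher. Agonist activity is taken from the 110 s fluorescence read following compound pin-transfer on an FDSS, before EC80 54-4 challenge.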
Six1-Eya2 blk: Six1/Eya2 interaction inhibition. Q15475+O00167. AlphaScreen GST-Six1/His-Eya2 binding, biochemical; stronger effect = lower value; control for the full effect not named in the record. activity change, % (no concentration beside the values). 0.56% of 360,000 active; in the data active = activity change below about -65%; inconclusive = about -30% to -65%; inactive = above about -30%; further: on the % scale 0 is the no-effect control and ±100 the full control effect; compound concentration not given in the record
Target sequence (O00167 whole entry, looked up): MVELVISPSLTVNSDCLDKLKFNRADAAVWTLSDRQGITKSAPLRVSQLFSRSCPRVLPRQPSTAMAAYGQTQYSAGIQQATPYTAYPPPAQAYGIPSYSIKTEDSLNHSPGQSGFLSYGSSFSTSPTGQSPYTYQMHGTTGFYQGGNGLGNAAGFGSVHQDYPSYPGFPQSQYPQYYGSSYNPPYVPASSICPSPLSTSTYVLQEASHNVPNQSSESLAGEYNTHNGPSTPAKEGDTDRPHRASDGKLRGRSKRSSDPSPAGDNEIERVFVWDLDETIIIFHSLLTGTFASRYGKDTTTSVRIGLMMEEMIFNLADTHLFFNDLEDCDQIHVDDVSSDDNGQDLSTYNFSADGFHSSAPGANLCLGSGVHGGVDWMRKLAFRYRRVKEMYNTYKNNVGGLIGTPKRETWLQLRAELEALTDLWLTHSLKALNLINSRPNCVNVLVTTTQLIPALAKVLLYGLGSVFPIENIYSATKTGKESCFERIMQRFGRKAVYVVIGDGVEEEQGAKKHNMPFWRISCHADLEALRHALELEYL
Target sequence (Q15475 whole entry, looked up): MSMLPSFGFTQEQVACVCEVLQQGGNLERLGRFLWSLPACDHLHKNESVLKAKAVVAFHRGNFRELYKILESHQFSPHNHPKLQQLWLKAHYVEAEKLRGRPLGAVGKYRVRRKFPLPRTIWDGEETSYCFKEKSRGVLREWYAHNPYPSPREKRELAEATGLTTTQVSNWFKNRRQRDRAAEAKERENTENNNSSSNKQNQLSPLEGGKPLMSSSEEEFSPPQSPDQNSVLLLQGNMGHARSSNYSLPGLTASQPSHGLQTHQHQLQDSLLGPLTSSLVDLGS
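Compounds are tested against tagged Six1 and Eya2 proteins bridged by glutathione donor and nickel acceptor beads; after a one-hour incubation at 37 °C without light, AlphaScreen emission is recorded.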
CtBP-E1A inh: CtBP/E1A binding inhibition; AlphaScreen GST-E1A/His-CtBP binding, 1536-well; stronger effect = lower value; control for the full effect not named in the record; activity change, % (concentration not given with the values); 0.49% of 340,000 active; AID 651724; in the data active means activity change below about -65%; inconclusive means about -30% to -65%; inactive means above about -30%; further: on the % scale 0 is the no-effect control and ±100 the full control effect
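In 5 uL wells, 23 nL compound meets equimolar GST-E1A and His-CtBP (5X stock 125 nM each) for 2 h, 37 °C. Beads (5X, 50 ug/mL) then 1 h, 37 °C, dark.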
PINK1 expr mod: modulators of PINK1 expression | Potency, µM (highest dose often 76.6 µM), without a hit: top-dose activation (PINK1 increase), usual class: activators | PINK1 immunofluorescence, high-content cytometry, 24 h | 0.2% of 410,000 active; active = well fitted activation curve with a large enough effect; inconclusive = small, poorly fitted or top-dose-only effect; inactive = flat fitted curve, though single readings scatter; cell line not stated here;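 further: potency means the concentration at half of the fitted maximal effect; % of control where 0% means no effect; nearly all actives have a fitted effect of over 65% in size; a mitochondrial uncoupler was the plate control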
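Measures PINK1 amount and localization on or inside mitochondria by immunofluorescence. Stable cells get compounds at 5 concentrations for 24 hours before fixation and staining; CCCP controls included.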
D2 potentiator: potentiates the human D2 dopamine receptor allosterically; DiscoveRx D2 beta-arrestin cells, luminescence, 90 min; 100% = 57 uM dopamine signal; potentiation, % (concentration not given with the values); P14416; 0.23% of 360,000 active; active = potentiation of 50% or more; inconclusive = 30% to 50%; inactive = 30% or less;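 further: compound concentration not given in the record; tested on top of an EC20 dose of dopamine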
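D2 cells co-treated with compound plus 50 nM dopamine (EC20) for 90 min at 37 deg C to detect potentiation. Beta-arrestin recruitment was read as enzyme-fragment luminescence after 1 h at ambient temperature. Full response was set by 57 uM dopamine.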
An asterisk follows results filed as active; ? = inconclusive; / = not tested or not shown; & = joins results of further samples; [ ] = another dose, or the depositor's remark.

entry | mol | D2 ag | TRPML1 agonist | Six1-Eya2 blk
1 | COc1cc(C(O)CO)ccc1OS(=O)(=O)O (configuration not stated) | -1.9 | -0.7 | 0
2 | COc1cccc(/C=N/n2c(-c3cc(C)[nH]n3)n[nH]c2=S)c1OC | -7.4 | -0.5 | 0
3 | CCOC(=O)c1cc(NC(=O)C2C3CCC(O3)C2C(=O)O)cc(C(=O)OCC)c1 (configuration not stated) | -1.0 | -0.5 | 2
4 | Cc1nnc(SCC(=O)Nc2sc3c(c2C#N)CCCC3)[nH]c1=O | -4.3 | 0.4 | -13
5 | COc1ccc(C)cc1COC(=O)c1[nH]c(C)c(C(C)=O)c1C | 3.4 | 1.1 | -12
6 | COc1ccc(/C=C/C(=O)Oc2cccc(/C=N/NC(=O)COc3c(C)cccc3C)c2)cc1 | -0.3 | 1.1 | 9
7 | COc1ccccc1NC(=O)Nc1ccc2c(c1)CCC2 | 0.4 | 0.0 | 0
8 | O=C(COc1ccccc1O)NNc1ccccc1 | -6.8 | 1.3 | -2
9 | COc1ccc(/C=C(\C#N)c2c[nH]c3ccccc23)cc1 | -1.0 | -0.7 | 0
10 | COc1ccc(OC)c(/C=C/C(=O)N(C)CC(=O)Nc2ccc(C)cc2)c1 | -1.7 | -0.5 | 2

entry | CtBP-E1A inh | PINK1 expr mod | D2 potentiator
1 | 31 | -0.2% | 5
2 | / | 4.6% | -23
3 | 13 | -1.9%[38.3 µM] | -11
4 | -7 | -0.7% | -14
5 | -4 | 19% | 0
6 | -8 | 4.8% | 3
7 | 3 | 1.3% | -10
8 | 8 | 0.2% | -17
9 | 13 | 1.9% | -3
10 | -12 | 4.0% | -32

The list goes on.
entry | mol | D2 ag | TRPML1 agonist | Six1-Eya2 blk
11 | O=C(NCc1cc([N+](=O)[O-])ccc1O)c1cccnc1Sc1ccc(Cl)cc1 | -5.4 | -0.5 | ?
12 | COCCCn1c(=O)c2sccc2n2c(CCCC(=O)NCc3ccc(F)cc3)nnc12 | -11 | 0.5&-0.5 | -5
13 | COc1ccc(NC(=O)CCCC(=O)NCCc2ccc(OC)c(OC)c2)cc1 | -3.1 | 1.0 | 0
14 | CC(C)CC(NC(=O)C(NC(=O)OC(C)(C)C)C(C)C)C(=O)N1CCCC1C(N)=O (configuration not stated) | -2.0 | -0.5 | 2
15 | O=S(=O)(NC1CC1)c1ccc(Cl)cc1 | 0.1 | -0.1 | 19
16 | COc1ccc(C(=O)Nc2ccc3nc(C)sc3c2)cc1S(=O)(=O)N1CCOCC1 | -1.3 | 0.6 | ?
17 | COCCOc1cc(COC)nc(-c2cccc(C)c2)n1 | -7.4 | 1.3 | 1
18 | COc1cc2nncc(SC)c2cc1OC | -2.5 | 0.6 | -20
19 | COc1cccc(N2CCN(C(=O)c3cccnc3)CC2)c1 | 0.4 | -0.4 | 3
20 | CCOC(=O)c1ccc(CNC(=O)Cn2nnc(-c3ccccc3F)n2)o1 | -3.1 | 0.3 | 1

entry | CtBP-E1A inh | PINK1 expr mod | D2 potentiator
11 | -15 | ? | 1
12 | -12 | 0.3%&-0.2% | 1
13 | -16 | -0.7% | -2
14 | 4 | -0.1% | 16
15 | 8 | -0.6% | 0
16 | -13 | 3.9% | -5
17 | / | 0.5% | -3
18 | -23 | -2.7% | -3
19 | -10 | 2.3% | -20
20 | 7 | 0.2% | -2

Of the compounds above, these have four or more nitrogen atoms.
entry | mol | D2 ag | TRPML1 agonist | Six1-Eya2 blk
2 | COc1cccc(/C=N/n2c(-c3cc(C)[nH]n3)n[nH]c2=S)c1OC | -7.4 | -0.5 | 0
4 | Cc1nnc(SCC(=O)Nc2sc3c(c2C#N)CCCC3)[nH]c1=O | -4.3 | 0.4 | -13
12 | COCCCn1c(=O)c2sccc2n2c(CCCC(=O)NCc3ccc(F)cc3)nnc12 | -11 | 0.5&-0.5 | -5
14 | CC(C)CC(NC(=O)C(NC(=O)OC(C)(C)C)C(C)C)C(=O)N1CCCC1C(N)=O (configuration not stated) | -2.0 | -0.5 | 2
20 | CCOC(=O)c1ccc(CNC(=O)Cn2nnc(-c3ccccc3F)n2)o1 | -3.1 | 0.3 | 1

entry | CtBP-E1A inh | PINK1 expr mod | D2 potentiator
2 | / | 4.6% | -23
4 | -7 | -0.7% | -14
12 | -12 | 0.3%&-0.2% | 1
14 | 4 | -0.1% | 16
20 | 7 | 0.2% | -2

Next part.
entry | mol | D2 ag | TRPML1 agonist | Six1-Eya2 blk
21 | Cc1ccccc1CNC(=O)c1ccccc1 | -1.1 | 0.1 | 1
22 | CN(CCc1cn[nH]c1)Cc1nc(C(c2ccccc2)c2ccccc2)no1 | -1.2 | 0.9 | -7
23 | O=C(Cn1cc2c(n1)CCCC2)N1CCOCC1 | 3.8 | 0.7 | 4
24 | O=[N+]([O-])c1nn(-c2cccc(Cl)c2)n(O)c1=NCc1cccnc1 | ? | 0.0 | -14
25 | CC(=O)Nc1ccc(N2CCN(c3ccc(F)cc3)CC2)cc1 | -4.1 | 0.6 | 4
26 | CC(C)CN(C(=O)C1CC1)c1c(N)n(Cc2ccccc2)c(=O)[nH]c1=O | 0.2 | -0.2 | 9
27 | O=c1[nH]c(-c2cccnc2)nc2ccccc12 | -0.4 | 0.5 | -1
28 | O=C(Nc1n[nH]c(C2CCCCC2)n1)C1CCCCC1 | -0.7 | -0.3 | 0
29 | COc1cccc(NC(=O)CN(C)C(=O)CN2C(=O)NC(C)(c3ccc4ccccc4c3)C2=O)c1 (configuration not stated) | 3.7 | -0.1 | -9
30 | COc1ccccc1NS(=O)(=O)c1cccc(C(=O)NCC2(N(C)C)CCCCC2)c1 | 2.0 | 0.2 | 16

entry | CtBP-E1A inh | PINK1 expr mod | D2 potentiator
21 | 13 | / | -7
22 | -1 | 10% | -9
23 | 5 | 2.5% | 1
24 | 19 | 1.9% | 59*
25 | / | -0.4% | -6
26 | -3 | 3.1% | 0
27 | -1 | -1.1% | -10
28 | 8 | 1.2%[38.3 µM] | 2
29 | -2 | 19% | -4
30 | 1 | -0.4% | -23

Continuation:
entry | mol | D2 ag | TRPML1 agonist | Six1-Eya2 blk
31 | CSCCC(NS(=O)(=O)c1ccccc1F)C(=O)NCC(C)(C)N1CCOCC1 (configuration not stated) | 3.6 | -0.4 | -1
32 | COc1ccccc1C(=O)O/N=C(\c1ccccc1)c1ccncc1 | 10 | 2.8 | -1
33 | O=C(c1ccc(Cl)cc1)N1CCC(O)(CSc2ccc(Cl)cc2)CC1 | -1.6 | 1.6 | 10
34 | CC(=O)c1ccc(C(=O)N2CCCC(C(=O)c3cc(F)ccc3F)C2)s1 (configuration not stated) | -0.7 | -0.4 | 0
35 | O=C(C1CCN(S(=O)(=O)N2CCOCC2)CC1)N1CCN(Cc2ccccc2)CC1 | -3.0 | 0.3 | 11
36 | COc1cccc(CN2CCCC(CNC(=O)c3ccc(F)cc3)C2)c1OC (configuration not stated) | -3.9 | 0.1 | -2
37 | CCOC(=O)c1c(S(=O)(=O)NCC(=O)Nc2cc(C)ccc2OC)c(C)n(C)c1C | 0.3 | -1.4&4.0 | -4
38 | CCOC(=O)C1=C(Nc2ccccc2)OCC1=O | -1.7 | -0.6 | 2
39 | CN(CCOc1ccc(Cl)c(Cl)c1)Cc1ccccc1 | -2.5 | 0.7 | 8
40 | CN(Cc1ccc(C(C)(C)C)cc1)C(=O)c1ccc2c(c1)OCO2 | -0.6 | 1.0 | 7

entry | CtBP-E1A inh | PINK1 expr mod | D2 potentiator
31 | 5 | -1.9% | 9
32 | 0 | -0.6% | 10
33 | 3 | -1.7% | -5
34 | 9 | 0.9% | -2
35 | 11 | 1.3% | -4
36 | 0 | 0.1% | -13
37 | -8 | -0.6%&4.1% | -3
38 | 3 | 4.0%[38.3 µM] | 9
39 | 46 | ? | -4
40 | 0 | 11% | 1

Whole records, quoted from the list. Screens in order: D2 ag	TRPML1 agonist	Six1-Eya2 blk	CtBP-E1A inh	PINK1 expr mod	D2 potentiator
O=C(c1ccc(Cl)cc1)N1CCC(O)(CSc2ccc(Cl)cc2)CC1 is entered as -1.6	1.6	10	3	-1.7%	-5
CCOC(=O)C1=C(Nc2ccccc2)OCC1=O is entered as -1.7	-0.6	2	3	4.0%[38.3 µM]	9

New compounds follow.
entry | mol | D2 ag | TRPML1 agonist | Six1-Eya2 blk
41 | COC(=O)c1ccc(COc2ccccc2[N+](=O)[O-])o1 | -5.7 | -0.3 | -13
42 | CN(C)c1ccnc(Nc2ccc(O)cc2)c1C#N | -2.4 | -0.1 | -8
43 | O=C(N/N=C/c1ccc([N+](=O)[O-])o1)c1cc2c(ccc3ccccc32)o1 | 3.4 | -0.4 | -6
44 | CN(Cc1ccccc1O)CC1CCCN(CCc2ccc(Cl)cc2)C1 (configuration not stated) | -4.1 | -0.1 | 3
45 | O=C(NCc1cccs1)c1cnc(Cl)c(Cl)c1 | 0.0 | 0.4 | -5
46 | CCc1ccc(/C=N/N2CCN(c3ccccn3)CC2)cc1 | -6.2 | -1.0 | -16
47 | CC(C)C(C(=O)NCC1CCCO1)N(C(=O)CNS(=O)(=O)c1ccc(F)cc1)C1CCCCC1 (configuration not stated) | -0.8 | -0.6 | 0
48 | O=C(Cc1ccc(-c2ccccc2)cc1)Nc1ncccc1O | 4.7 | 0.4 | ?
49 | COc1ccc(CNC(=O)/C=C/[C@H]2O[C@@H](n3ccc(=O)[nH]c3=O)[C@H](O)[C@@H]2O)cc1 | -3.5 | -0.2 | 8
50 | CCOC(=O)C1=C(N)Oc2cc(C)oc(=O)c2C1c1cccnc1 (configuration not stated) | -3.1 | 1.5 | 2

entry | CtBP-E1A inh | PINK1 expr mod | D2 potentiator
41 | / | 1.4% | 3
42 | 1 | 1.9% | -1
43 | 4 | 7.9% | 11
44 | / | 11% | -66
45 | -3 | 2.4% | 2
46 | / | 8.2% | -18
47 | -5 | -0.4% | -6
48 | ? | 3.0% | -23
49 | 4 | 3.7% | -7
50 | -1 | -1.6% | -3

Next part.
entry | mol | D2 ag | TRPML1 agonist | Six1-Eya2 blk
51 | CC(C)[C@H](Nc1ccc(C(F)(F)F)cc1[N+](=O)[O-])C(=O)O | -9.5 | -0.2 | 4
52 | CN1CCN(C(=O)c2ccccc2NC(=O)c2cccs2)CC1 | -2.9 | -0.4 | 10
53 | O=C1COc2ccc(C(=O)c3ccccc3C(=O)NCc3ccccc3)cc2N1 | -3.9 | 3.2 | -4
54 | CC(=O)N1c2ccc(S(=O)(=O)N3CCCCC3)cc2CC1C(=O)Nc1ccccc1C(F)(F)F (configuration not stated) | -4.9 | -0.1 | 2
55 | CN(Cc1ccccc1)C(=O)c1nc[nH]c1C(=O)N(C)Cc1ccccc1 | -4.1 | -0.7 | -4
56 | COc1ccc(-c2noc(CNC(=O)c3ccc4c(c3)OCO4)n2)cc1OC | -0.3 | -0.5 | -10
57 | COc1ccc(-n2nc([N+](=O)[O-])c(=NCc3cccnc3)n2O)cc1 | ? | -0.7 | -4
58 | O=Nc1ccc(NO)c2ccccc12 | ? | 0.3 | -2
59 | Cc1cc(Cl)ccc1OCC(=O)OCC(=O)NC1CCCC1 | 0.1 | 0.2 | 6

entry | CtBP-E1A inh | PINK1 expr mod | D2 potentiator
51 | -2 | -0.4% | -8
52 | 8 | -2.1% | 5
53 | -1 | 0.3% | -16
54 | -2 | -0.9% | -21
55 | 2 | -1.1% | -4
56 | 3 | 2.8% | 0
57 | -6 | 2.5% | ?
58 | -17 | 1.3% | -2
59 | -3 | -0.3% | -2

Compound activity from PubChem.

Random draw from the library (roughly 1.3% active in at least one column).
